Screens: PubChem BioAssay, National Center for Advancing Translational Sciences (NCATS)
miR-21 reporter = qHTS Assay for Modulators of miRNAs and/orActivators of miR-21 | HeLa miR-21 FLuc reporter, luciferase, 48 h | Potency, µM (titrated, usually from 38.3 µM), without a hit: top-dose reporter change, positive = more light | 340,000 tested, under 10 active; active = well fitted rising curve with a large enough effect; inconclusive = small, poorly fitted or top-dose-only effect; inactive = no such curve, though single readings can be large or run the other way;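 note: % of control where 0% means no effect; miR-21 action dims this reporter so a rising signal means less miR-21 action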
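HeLa miR-21-FLuc reporter line, endogenous miR-21; 2000 cells/well in DMEM/10% FBS; compound titration up to ~40uM final, 48 h, 37 degree Celsius; luciferase detection reagent, 15 min lysis, CCD luminescence.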
Rango-impB inh = qHTS Assay for Inhibitors of Rango (Ran-regulated importin-beta cargo) - Importin beta complex formation | Rango CFP/YFP FRET sensor + importin beta, 45 min | AID 540263, 2011 | 340,000 tested, 0.031% active | Potency, µM (top dose mostly 92.2 µM), inactives show at the highest dose inhibition of complex formation | Importin subunit beta-1 (Homo sapiens), Q14974; active = rising FRET ratio curve, often small or poorly fitted; inconclusive = mostly compound fluorescence or quenching in the first reads; inactive = flat curves in all reads;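 note: potency is the fitted concentration of half-maximal effect; 0% = DMSO wells and 100% = buffer wells lacking importin beta; nearly all actives have a fitted effect of over 15% in size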
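FRET biosensor (snurportin 1 IBB flanked by EYFP and cerulean), 50 nM, with compound 5 min, then 0.125 microM importin beta in PBS, 1 mM DTT, 0.02% Tween-20, 0.1% BSA. CFP/YFP ratio read after 45 min at room temperature; pre-read flags interference.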
GLA inh pH 4.5 = qHTS Assay for Inhibitors of Human alpha-Galactosidase at pH 4.5. Alpha-galactosidase A (Homo sapiens), P06280. purified enzyme, 4-MU-alpha-Gal fluorescence, pH 4.5. activity change, negative = inhibition, % at 105 µM. 230,000 tested, under 10 active. AID 1467, 2008; inconclusive = small, poorly fitted or top-dose-only inhibition, or a rising curve; inactive = flat fitted curve, though single readings scatter; no compound was filed as active;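 note: 0% = full activity with enzyme and -100% = basal without enzyme; dose as in the result columns while the protocol names 77 µM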
Target sequence (P06280 whole entry, looked up): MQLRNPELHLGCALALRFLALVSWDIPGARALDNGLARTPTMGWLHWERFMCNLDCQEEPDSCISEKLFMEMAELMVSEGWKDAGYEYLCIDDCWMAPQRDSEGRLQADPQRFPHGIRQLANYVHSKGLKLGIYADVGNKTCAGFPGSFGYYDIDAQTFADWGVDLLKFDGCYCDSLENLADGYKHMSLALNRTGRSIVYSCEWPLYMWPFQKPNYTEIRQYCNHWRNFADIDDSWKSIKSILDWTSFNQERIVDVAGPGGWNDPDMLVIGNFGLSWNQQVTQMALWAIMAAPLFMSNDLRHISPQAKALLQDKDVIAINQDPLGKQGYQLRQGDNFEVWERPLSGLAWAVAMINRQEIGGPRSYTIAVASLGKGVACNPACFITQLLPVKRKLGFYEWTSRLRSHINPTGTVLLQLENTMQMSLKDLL
Rango release inh = qHTS Assay for Inhibitors of RanGTP induced Rango (Ran-regulated importin-beta cargo) - Importin beta complex dissociation. Biochemical FRET Rango-importin beta, RanGTP-induced dissociation. Potency, µM (doses to about 46.1 µM), for the others: at the top dose activity change, negative = inhibition. 340,000 tested, 0.071% active; active means falling FRET ratio curve, often poorly fitted, with flat reads before Ran was added; inconclusive means other falling curves, or compound fluorescence or quenching; inactive means flat or rising ratio curve;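 note: potency is the fitted concentration of half-maximal effect; % of control where 0% means no effect; nearly all actives have a fitted effect of over 45% in size; -100% = wells without RanGTP and RCC1; the record marks most hits as doubtful in a second field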
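Rango/importin beta premix (0.1/0.25 uM final), PBS + 1 mM DTT + 0.02% Tween-20 + 0.1% BSA; cpd 5 min RT; FRET pre-read; + RanGTP-RCC1 (0.6 uM Ran, 2 mM GTP, 0.2 uM RCC1); 45 min RT; FRET post-read, ex 430, em 486/530 nm.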
* marks the source's active call; other numbers are inactive results; ? = inconclusive; · = not tested or not shown. An excerpt; rates above refer to the full screens.

SMILES	miR-21 reporter	Rango-impB inh	GLA inh pH 4.5	Rango release inh
COc1cccc(N2CC(C(=O)Nc3ccc(F)cc3)CC2=O)c1 (stereo not drawn)	0%	0.4%	·	?
Cc1ccc2nc(SCC(=O)Nc3cccc(S(=O)(=O)NC4=NCCCCC4)c3)[nH]c2c1	11%	1.7%	-4	-2%
COc1ccc(-c2cc(C(=O)O)[nH]n2)cc1OC	-1%	4.2%	-5	1%
O=C(CC1C[C@H](C(=O)N2CCCCC2)[C@@]2(CCc3ccccc3)c3[nH]c4ccccc4c3CCN2C1=O)NCCC1=CCCCC1 (stereo partly drawn)	·	-0.4%	·	-6%
Cn1nc(-c2ccccc2F)c2cc(C(=O)Nc3ccc4c(c3)OCCO4)sc21	6%	3.8%	-10	-3%
COc1ccc(S(=O)(=O)N2CCCCCC2)cc1NC(=O)Cc1n[nH]c(=O)c2ccccc12	·	4.6%	·	-1%
COc1ccc(CC(=O)NC(C)C2COc3ccccc3O2)cc1OC (stereo not drawn)	-4%	-0.1%	3	-10%
Cc1cc(OCc2nc3ccccc3s2)ccc1N	-64%	-1.7%	2	20%
CN(C)C(=O)c1cn(CCC#N)nc1-c1ccc2ccccc2c1	0%	-4.9%	·	-12%
CN(C)c1cccc(Oc2nc3c(c(=O)n(C)c(=O)n3C)n2C)c1	-1%	-0.6%	·	-10%
COC(=O)c1[nH]c2ccc(C)cc2c1NC(=O)CCN1CCN(Cc2ccc3c(c2)OCO3)CC1	7%	0.2%	-1	-25%
O=S(=O)(Nc1ncccn1)c1ccc(NC(=S)NCc2ccco2)cc1	1%	-2.2%	-1	-1%

5 of the entries above in order of their number in Rango-impB inh, low to high:
SMILES	miR-21 reporter	Rango-impB inh	GLA inh pH 4.5	Rango release inh
Cc1cc(OCc2nc3ccccc3s2)ccc1N	-64%	-1.7%	2	20%
COc1ccc(CC(=O)NC(C)C2COc3ccccc3O2)cc1OC (stereo not drawn)	-4%	-0.1%	3	-10%
COc1cccc(N2CC(C(=O)Nc3ccc(F)cc3)CC2=O)c1 (stereo not drawn)	0%	0.4%	·	?
Cn1nc(-c2ccccc2F)c2cc(C(=O)Nc3ccc4c(c3)OCCO4)sc21	6%	3.8%	-10	-3%
COc1ccc(-c2cc(C(=O)O)[nH]n2)cc1OC	-1%	4.2%	-5	1%

New compounds follow.
SMILES	miR-21 reporter	Rango-impB inh	GLA inh pH 4.5	Rango release inh
CCCCCCSc1cc(-c2nc3cc(C)ccn3c2NC2CCCCC2)ccc1OC	·	-1.5%	·	-21%
CCN(CC)C(=O)CSc1nc(N)c(-c2ccccc2)c(=O)[nH]1	-3%	0.4%	-7	6%
O=[N+]([O-])c1ccccc1Oc1ccc(Cl)c2cccnc12	-27%	3.5%	-6	-21%
COc1cccc(OCC(O)CN2CCC(C)CC2)c1 (stereo not drawn)	0%	-2.5%	-3	-4%
COc1ccc(N2CCN(C(CNC(=O)C(=O)NCCC3=CCCCC3)c3ccco3)CC2)cc1 (stereo not drawn)	-10%	-2.6%	4	0%
C=CCn1c(SCC(=O)N(CCC)C2CCS(=O)(=O)C2)nnc1-c1ccccc1OC (stereo not drawn)	·	-1.5%	·	23%
Cn1c(SCC(=O)NC2CCCC2)nnc1-c1ccco1	0%	0.0%	·	14%
Cc1cc(C)cc(N(CCC#N)C(=O)COC(=O)C2CCN(c3ccc(C(F)(F)F)cn3)CC2)c1	·	0.4%	·	3%
COc1ccc(Nc2nc(C)c(-c3ccccc3)s2)cc1	-70%	15%	-4	-3%
O=C(c1cccn(Cc2cccc(Cl)c2)c1=O)N1CCOCC1	2%	-3.4%	4	1%
CN(C)C(=S)NC1CCS(=O)(=O)C1 (stereo not drawn)	2%	2.8%	3	18%
O=c1c2cn(Cc3ccc(F)cc3)c3ccccc3c-2nn1Cc1ccc(F)cc1	1%	0.7%	·	-2%
CCCCN1CC(COCc2ccccc2)Oc2cccc(Oc3ccc(F)cc3)c2S1(=O)=O (stereo not drawn)	·	?	·	1%
COc1ccc(-n2nnnc2SCC(=O)Nc2c(C)n[nH]c2C)cc1	·	-3.1%	·	-2%
O=C(NCCCc1ccccc1)c1cccs1	-44%	2.8%	9	?
O=C(NCc1cccs1)NC1CCCCC1	-33%	-2.7%	3	0%
CCOCCCNC(=O)Cn1ncc2c(=O)oc3ccccc3c21	-10%	-2.4%	3	1%
N#Cc1ncc(Cc2ccccc2)nc1C#N	19%	0.1%	·	-2%
CC(C)CCNC(=O)COC(=O)c1cc(Br)c(Br)s1	-1%	0.1%	-10	1%
Cc1cccc(C)c1NC(=O)C1C2C=CC(C2)C1C(=O)NCc1ccccn1 (stereo not drawn)	-2%	-0.3%	13	5%
CN1C(=S)SC(C)(C)C1N(O)C(=O)Nc1ccc(Cl)cc1 (stereo not drawn)	-9%	-1.2%	1	19%
CCCn1c(CCC(=O)O)ccc1-c1ccccc1	-1%	0.7%	6	-24%
CCCCNS(=O)(=O)c1ccc(OC)c(C)c1	-1%	-0.5%	-1	0%
Cn1c(CN2CCCC2)nc2cc(NC(=O)c3ccc(Cl)cc3)ccc21	-4%	-0.1%	-5	-4%
COc1cccc(/C=N/Nc2ncc(C)c(=O)[nH]2)c1OC	-2%	1.2%	·	-6%
O=C(Nc1ccc(F)cc1F)c1c(C(F)(F)F)ccnc1Oc1ccccc1	0%	3.5%	-2	13%
CCCC1=C/C(=C/c2ccc(-c3ccccc3OC)o2)C(=O)O1	-18%	?	4	?
C=CCNC(=O)c1c(N)n(-c2cccc(S(N)(=O)=O)c2)c2nc3ccccc3nc12	12%	?	?	?
O=C(CSCc1ccccc1)NCc1ccc2c(c1)OCO2	-16%	-0.7%	0	0%
COC(=O)c1c(-c2ccccc2)c[nH]c1C	-33%	0.4%	5	1%
CCOc1cc(C2NC(=O)N(C)C(C)=C2[N+](=O)[O-])ccc1OC(C)=O (stereo not drawn)	4%	?	-11	0%
CN(C)S(=O)(=O)c1ccc(NC(=O)c2ccc3ncsc3c2)cc1	-45%	-4.0%	-2	-5%
Cc1cc(C)n2nc(C(=O)OCCOc3cccc(Br)c3)nc2n1	-11%	-0.8%	1	-11%
O=C(NCc1cccs1)c1ccc(CS(=O)Cc2ccccc2Cl)o1 (stereo not drawn)	-5%	0.2%	·	?
COc1ccc(OC)c(NC(=O)CSc2nnc(Cc3cccn3C)n2-c2ccc(F)cc2)c1	1%	0.9%	0	-4%
Cc1cccc(Nc2nnc(SCC(=O)Nc3cccc(S(=O)(=O)N4CCCCC4)c3)s2)c1	-31%	-4.3%	-7	?
COc1ccc(OCC(=O)Nc2cc(S(=O)(=O)N3CCCC3)ccc2OCC(F)(F)F)cc1	·	1.5%	·	-9%
OC1=C(O)c2nc3cc(C(F)(F)F)ccc3nc21	9%	1.3%	2	22%
O=C(c1cccc(C(F)(F)F)c1)C1CCCN(Cc2cccn2-c2ccccn2)C1 (stereo not drawn)	28%	-1.9%	-11	-1%
COCCn1c(-c2ccc(C#N)cc2)nc2c1c(=O)[nH]c(=O)n2Cc1ccccc1	-7%	-0.7%	-15	-5%
CN(C)CCCNCCCNC(=O)/C=N/O	1%	-1.2%	-7	0%
CCC(C)NS(=O)(=O)c1ccc(NC(=O)C2CCCO2)cc1 (stereo not drawn)	-18%	-1.8%	-3	-1%
COc1ccc(C(=O)NCCc2nnc3ccc(SCC(=O)N4CCOCC4)nn23)cc1	0%	?	·	-11%
Nc1ccc(N2CCOCC2)c2nonc12	-18%	0.2%	2	-2%
COc1ccc(-c2oc3ncnc(NCCCN4CCOCC4)c3c2-c2ccc(OC)cc2)cc1	-40%	7.6%	-5	16%
O=Cc1nccc2ccccc12	·	-0.8%	·	-8%
O=C(O)CC(Cc1ccccc1)(C(=O)O)c1ccccc1 (stereo not drawn)	-7%	0.8%	·	1%
CN(C)/C=C1\NC(=S)N(c2ccc(Cl)cc2)C1=O	-2%	-0.9%	-1	5%
CCCC(O)(c1ccc(Cl)cc1)C(CN1CCOCC1)c1ccc(Cl)cc1 (stereo not drawn)	15%	-3.5%	·	-14%
CC(C)Cn1c(C23CC4CC(CC(C4)C2)C3)n[nH]c1=S	27%	-0.7%	·	6%
COc1cccc(C(=O)O[C@H]2[C@H](Cc3ccccc3)NS(=O)(=O)[C@H]3C[C@@H]4C=C[C@]23O4)c1	·	-0.9%	·	-10%
Cc1cc(C(=O)Nc2ccccc2C(=O)N2CCCCC2)ccc1[N+](=O)[O-]	1%	5.0%	-1	9%
COC(=O)c1cc2c(cc1Cl)SC(=NCCCN1CCOCC1)NS2(=O)=O	0%	2.8%	-4	1%
O=[N+]([O-])c1cccc(NC(=S)Nc2nc(-c3ccccc3Cl)cs2)c1	21%	-0.8%	·	-3%
CCOC(=O)c1sc(NS(=O)(=O)c2ccc(NC(C)=O)cc2)nc1C	-5%	9.9%	-10	6%
O=C(CNC(=O)c1cccc(F)c1)N/N=C/c1cc(Br)ccc1OCc1ccccc1	-25%	0.2%	-1	-25%
O=Cc1cn(CC(O)CN2CCCCC2)c2ccccc12 (stereo not drawn)	-1%	0.5%	-10	-2%
Nc1ccc(S(=O)(=O)Nc2nccc(/C=C/c3ccccc3F)n2)cc1	-15%	0.1%	-13	15%
O=C(c1ncc[nH]1)c1ccccc1C(=O)N1CCOCC1	-4%	-0.9%	3	16%
CC1CCCCC12NC(=O)N(CC(=O)c1ccc3c(c1)OCO3)C2=O (stereo not drawn)	·	5.0%	·	?
Carrying on:
SMILES	miR-21 reporter	Rango-impB inh	GLA inh pH 4.5	Rango release inh
COc1ccc(S(=O)(=O)NC2CC(=O)N(c3ccc4c(c3)OCCO4)C2)cc1 (stereo not drawn)	·	-1.0%	·	-7%
COc1ccc(-c2csc(CCn3nc(C)cc3C)n2)cc1	-16%	5.8%	-19	-7%
CN(C)c1ccc(CNS(=O)(=O)c2ccc3c(c2)NC(=O)CS3)cc1	4%	0.2%	·	12%
Cc1ccccc1S(=O)(=O)Cc1ccc(C(=O)N2CCN(c3ccc(F)cc3)CC2)o1	20%	16%	1	5%
CCCCCn1c(NC(=O)c2ccco2)c(S(=O)(=O)c2ccc(C)cc2)c2nc3ccccc3nc21	23%	?	8	?
CC1=C(C(=O)OCc2ccccc2)C(c2ccccc2OS(=O)(=O)c2ccccc2[N+](=O)[O-])NC(=O)N1CCCC(=O)O (stereo not drawn)	·	-0.5%	·	0%
Cc1ccc(-n2c(-c3ccc(Cl)cc3)n[nH]c2=S)cc1	-4%	-2.1%	·	3%
O=C(O)CN=C1NC2(CCCC2)Cc2ccccc21	0%	-5.3%	-6	-20%
O=C(OCCN(C1=NS(=O)(=O)c2ccccc21)c1ccccc1Cl)c1ccc(Cl)cc1	5%	-0.6%	1	34%
C(/C=C/c1ccco1)=N/N1CCN(c2ccccc2)CC1	-42%	2.6%	-6	31%
COc1cccc(NS(=O)(=O)c2ccc3c(c2)C2C=CCC2C(c2ccc(C(=O)O)cc2)N3)c1 (stereo not drawn)	4%	?	-2	-19%
Cc1ccc(/C=N\NC(=O)C2CN(S(=O)(=O)c3ccccc3)CCN2S(=O)(=O)c2ccccc2)cc1 (stereo not drawn)	-2%	-0.8%	2	-8%

The last two compounds of the section above lead into the next.
SMILES	miR-21 reporter	Rango-impB inh	GLA inh pH 4.5	Rango release inh
COc1cccc(NS(=O)(=O)c2ccc3c(c2)C2C=CCC2C(c2ccc(C(=O)O)cc2)N3)c1 (stereo not drawn)	4%	?	-2	-19%
Cc1ccc(/C=N\NC(=O)C2CN(S(=O)(=O)c3ccccc3)CCN2S(=O)(=O)c2ccccc2)cc1 (stereo not drawn)	-2%	-0.8%	2	-8%
O=C(Cc1cccs1)Nc1ccc(Cl)cc1	-33%	1.2%	-5	4%
CC(C)CN(Cc1cc2ccccc2[nH]c1=O)C(=O)c1cccnc1	0%	-0.4%	-9	-1%
C=CCSc1nc2sc(C)c(C)c2c(=O)[nH]1	-8%	-2.2%	-2	-8%
O=S(=O)(c1ccccc1F)N1CCN(CCc2ccccc2)CC1	15%	-5.2%	·	30%
